AmpC inh no det = AmpC beta-lactamase inhibition, detergent-free assay. Potency, µM (top dose mostly 28.7 µM), for inactives: at the highest dose activity change, negative = inhibition. AmpC nitrocefin hydrolysis, absorbance 480 nm, no detergent; potencies from a single point are estimates. P00811. hit rate 1.8% among 71,000; active = falling curve, for most hits resting on a single point; inconclusive = weak or doubtful change; inactive = flat or rising curve; note: % of control where 0% means no effect; about half of the hits show no inhibition at the top dose; a quarter of the inactives give rising signals
Target sequence (P00811 whole entry, looked up): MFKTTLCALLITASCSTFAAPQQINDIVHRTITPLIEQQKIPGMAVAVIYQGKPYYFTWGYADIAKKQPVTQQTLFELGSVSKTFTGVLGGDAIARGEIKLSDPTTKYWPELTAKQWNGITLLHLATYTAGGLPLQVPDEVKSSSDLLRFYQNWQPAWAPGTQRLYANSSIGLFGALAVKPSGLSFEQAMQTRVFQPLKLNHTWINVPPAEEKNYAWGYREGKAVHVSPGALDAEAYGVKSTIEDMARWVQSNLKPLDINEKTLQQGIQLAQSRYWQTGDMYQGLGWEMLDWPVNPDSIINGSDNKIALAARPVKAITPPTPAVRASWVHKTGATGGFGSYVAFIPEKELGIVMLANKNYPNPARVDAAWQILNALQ
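AmpC in 20 mM phosphate buffer pH 7.0 was preincubated 15 min at room temperature with compounds. Nitrocefin (800 uM stock) was then added and hydrolysis followed at 480 nm every 20 s for 4 min.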
Starred values were filed as active, the others as inactive; & = joins results of further samples; [ ] = dose if it differs, or a comment. Potency is the fitted concentration of half-maximal effect. These rows are one share of the data. The share of hits here may be higher or lower than overall.

Screening CCCCn1c(CN2CCN(c3ccc(F)cc3)CC2)nc2c1c(=O)n(C)c(=O)n2C returned AmpC inh no det -7%.
`NS(=O)(=O)c1cc2c(cc1Cl)NC(CSCc1ccccc1)=NS2(=O)=O` gave AmpC inh no det -8%[12.8 µM].
O=C(CCN1C(=O)C2C3C=CC(C3)C2C1=O)Nc1c(F)cccc1F (stereo not drawn) was read as AmpC inh no det -2%.
`c1coc(CNC2CCCCCCC2)c1` gave AmpC inh no det 5%.
Screening CS(=O)(=O)c1ccc2nc(NC(=O)C3CCCCC3)sc2c1 returned AmpC inh no det 0%.
`CCOC(=O)C1(CCSC)NC(c2ccco2)C2C(=O)N(CC)C(=O)C21` (stereo not drawn) gave AmpC inh no det 20%.
`O=C(CC1NC2CCCCC2NC1=O)Nc1ccc2c(c1)OCO2` (stereo not drawn) gave AmpC inh no det 2%.
`COc1cc2c(cc1OC)C(C(=O)Nc1cccc(C)n1)C(c1cccnc1)N(C)C2=O` (stereo not drawn) gave AmpC inh no det 0%.
CCC(C)(C)n1nnnc1C(c1cc(OC)c(OC)c(OC)c1)N1CCN(c2ccccc2)CC1 (stereo not drawn) was read as AmpC inh no det 83%.
Screening COc1cc(OC)cc(C2C(C#N)=C(N)Oc3n[nH]c(-c4cccnc4)c32)c1 (stereo not drawn) returned AmpC inh no det -5%.
`COc1cc2ccc([C@H](C)NCC#N)cc2cc1OC` gave AmpC inh no det 2%[5.75 µM].
Cc1ccc(OCC(O)Cn2c(NCCc3ccccc3)nc3c2c(=O)[nH]c(=O)n3C)cc1 (stereo not drawn) was read as AmpC inh no det -13%.
Screening O=S(=O)(NCc1cccnc1)c1ccc(Br)s1 returned AmpC inh no det -2%.
Screening O=C(NCc1cccnc1)C1CCCN(S(=O)(=O)c2ccc(Br)cc2)C1 (stereo not drawn) returned AmpC inh no det 30%.
For O=C(c1cc(-c2ccc(Cl)c(Cl)c2)on1)N1CCCCC1 the results were AmpC inh no det 19%.
For Cn1c(=O)n(CC(=O)N2CCN(c3nnc(-c4ccccc4)c4ccccc34)CC2)c2ccccc21 the results were AmpC inh no det 72%.
For CN1CCN(CCCNC(=O)C2CC(=O)N(C3CCCCC3)C2)CC1 (stereo not drawn) the results were AmpC inh no det -16%.
O=C(CSc1n[nH]c(-c2ccccc2)n1)c1ccccc1 was read as AmpC inh no det 9%.
`COC(=O)n1c(SC)nc2ccccc21` gave AmpC inh no det -10%.
For O=C(O)[C@H]1CCc2ccc3ccccc3c2[C@H]1c1cccc2ccccc12 the results were AmpC inh no det -7%[5.75 µM].

Next section (5 carried over from the part before).
For Cn1c(=O)n(CC(=O)N2CCN(c3nnc(-c4ccccc4)c4ccccc34)CC2)c2ccccc21 the results were AmpC inh no det 72%.
For CN1CCN(CCCNC(=O)C2CC(=O)N(C3CCCCC3)C2)CC1 (stereo not drawn) the results were AmpC inh no det -16%.
O=C(CSc1n[nH]c(-c2ccccc2)n1)c1ccccc1 was read as AmpC inh no det 9%.
`COC(=O)n1c(SC)nc2ccccc21` gave AmpC inh no det -10%.
For O=C(O)[C@H]1CCc2ccc3ccccc3c2[C@H]1c1cccc2ccccc12 the results were AmpC inh no det -7%[5.75 µM].
For Cc1oc(C)c(C(=O)O)c1COc1ccc(C(=O)O)cc1 the results were AmpC inh no det -7%.
`O=c1[nH]c(CSc2nnc(-c3ccncc3)n2Cc2ccco2)nc2ccccc12` gave AmpC inh no det 8%.
`COc1ccccc1-n1c(SCC(N)=O)nnc1-c1ccccc1` gave AmpC inh no det -3%.
`O=C1c2ccc(-c3nc4ccccc4o3)cc2C(=O)N1Cc1cccnc1` gave AmpC inh no det 1%.
CC(=O)NC12CC3CC(C1)CC(C(=O)Nc1nccs1)(C3)C2 was read as AmpC inh no det -8%.
COCCCN1C(=O)C(=O)/C(=C(/O)c2ccc(OC)cc2)C1c1ccc(O)c(OC)c1 (stereo not drawn) was read as AmpC inh no det -15%.
Screening O=S1(=O)N=C(Nc2nc3c(s2)CCCC3)c2ccccc21 returned AmpC inh no det -16%.
Screening COC(=O)C(C)n1cnc2c(cnn2-c2ccc(Cl)cc2)c1=O (stereo not drawn) returned AmpC inh no det 14%.
`Cc1ccc(CN(C)C(=O)c2ccccc2Oc2ccccc2)o1` gave AmpC inh no det 28%.
`COCCn1c(N)c(NCc2ccccc2)c(=O)n(CC(=O)Nc2cc(C)ccc2C)c1=O` gave AmpC inh no det 76%.

Compounds from the list above that contain bromine (two):
Screening O=S(=O)(NCc1cccnc1)c1ccc(Br)s1 returned AmpC inh no det -2%.
Screening O=C(NCc1cccnc1)C1CCCN(S(=O)(=O)c2ccc(Br)cc2)C1 (stereo not drawn) returned AmpC inh no det 30%.

Additional records
C=C(C)c1ccccc1 (tested in a mixture with another compound) was read as AmpC inh no det -4%[5.75 µM].
For COc1ccccc1-c1cn[nH]c(=S)n1 the results were AmpC inh no det -14%.
For COc1cc(Nc2nc(SCC#N)nc3ccccc23)cc(OC)c1OC the results were AmpC inh no det 15%.
For CCCN1C(=O)C2(C(C(=O)c3ccc(C)o3)=C(O)C(=O)N2CCCN2CCOCC2)c2ccccc21 (stereo not drawn) the results were AmpC inh no det 5%.
Screening C=CCn1c(SCC(=O)c2cc(C)n(Cc3cccs3)c2C)nnc1-c1ccncc1 returned AmpC inh no det 120%.
For CC1CCN(c2ccc(C(=O)O)cc2N)CC1 the results were AmpC inh no det -21%.
Screening CCOC(=O)/C=C1\SCC(=O)N1CC(=O)NC1CCCCC1 returned AmpC inh no det -3%.
For CCc1ccccc1NC(=O)C(Cc1cccc(OC)c1OC)c1nn[nH]n1 (stereo not drawn) the results were AmpC inh no det 13%.
CCOC(=O)Cc1csc(NC(=O)CSc2nnc(C(C)C)n2C)n1 was read as AmpC inh no det -3%.
Cc1ccc(NCc2nnc(SCC(=O)N(Cc3ccccc3)C(C)(C)C)o2)c(C)c1 was read as AmpC inh no det 56%.

Continued (3 carried over from the part before).
For CCc1ccccc1NC(=O)C(Cc1cccc(OC)c1OC)c1nn[nH]n1 (stereo not drawn) the results were AmpC inh no det 13%.
CCOC(=O)Cc1csc(NC(=O)CSc2nnc(C(C)C)n2C)n1 was read as AmpC inh no det -3%.
Cc1ccc(NCc2nnc(SCC(=O)N(Cc3ccccc3)C(C)(C)C)o2)c(C)c1 was read as AmpC inh no det 56%.
Screening CCC(=O)c1ccc(OCC(O)CN2C(=O)NC(C)(C)C2=O)cc1 (stereo not drawn) returned AmpC inh no det 8%.
For Cc1ccc(N2CC(C(=O)NCc3ccc4c(c3)OCO4)CC2=O)cc1C (stereo not drawn) the results were AmpC inh no det 42%.
`CCN(CC)c1ccc(C(=S)N2CCN(c3ccccc3)CC2)cc1` gave AmpC inh no det -8%.
`Cc1ccc(NS(=O)(=O)c2ccc(NC(=O)C3CCCO3)cc2)cc1` (stereo not drawn) gave AmpC inh no det -11%.
For COc1ccc(NC(=O)N2CCCc3ccccc32)cc1 the results were AmpC inh no det -13%.
`Cc1cccc(Nc2nc(N)nc(CN3CCC(C)CC3)n2)c1C` gave AmpC inh no det 8%.
Cc1nnc(SCc2cn3ccsc3n2)n(N)c1=O was read as AmpC inh no det -9%.
Screening C/C=C1\C(=O)C[C@H]2[C@@H]3CCC4=CC(=O)CC[C@]4(C)[C@H]3CC[C@]12C returned AmpC inh no det 69%.
`O=C(NCc1ccco1)c1cc(-c2ccco2)on1` gave AmpC inh no det -7%.
Screening Cc1cc(=O)oc2ccc(OCC(=O)N3CCC(C)CC3)cc12 returned AmpC inh no det 11%.
Screening O=C(CN(Cc1ccccc1Cl)C(=O)Cn1nnc(-c2cccs2)n1)NCC1CCCO1 (stereo not drawn) returned AmpC inh no det 50%.
`COc1cc(C2NC(=O)NC(O)(C(F)(F)F)C2C(=O)c2ccc(Cl)cc2)ccc1O` (stereo not drawn) gave AmpC inh no det 10%.
Screening C/C(=C\c1ccc(C(=O)O)cc1)c1ccc2c(c1)C(C)(C)CCC2(C)C returned AmpC inh no det -2%&4%.
For Cc1cccc(NC(=O)CC2CCC2)c1 the results were AmpC inh no det 5%.
For CC(C)C(c1nnnn1C1CCCC1)N(C)C1CCCCC1 (stereo not drawn) the results were AmpC inh no det 11%.
For O=C(Nc1ccc(Oc2ccc(S(=O)(=O)N3CCOCC3)cn2)cc1)c1ccco1 the results were AmpC inh no det 7%.
Screening COc1cccc(C2CC(=O)N3CN(c4ccccc4F)CSC3=C2C#N)c1 (stereo not drawn) returned AmpC inh no det 4µM*[single pt active].
For OCCSc1ncnc2c1oc1ccccc12 the results were AmpC inh no det 2%.
For CCN(CC)CCn1ncc2c(N)ncnc21 the results were AmpC inh no det 4%[5.75 µM].
`Cc1c(C(=O)Nc2ccccc2Cl)oc2ccc(S(=O)(=O)N3CCC4(CC3)OCCO4)cc12` gave AmpC inh no det 54%.

Quoted at random: 4 compounds from above, in no set order.
Screening C/C(=C\c1ccc(C(=O)O)cc1)c1ccc2c(c1)C(C)(C)CCC2(C)C returned AmpC inh no det -2%&4%.
For O=C(Nc1ccc(Oc2ccc(S(=O)(=O)N3CCOCC3)cn2)cc1)c1ccco1 the results were AmpC inh no det 7%.
`COc1cc(C2NC(=O)NC(O)(C(F)(F)F)C2C(=O)c2ccc(Cl)cc2)ccc1O` (stereo not drawn) gave AmpC inh no det 10%.
For OCCSc1ncnc2c1oc1ccccc12 the results were AmpC inh no det 2%.

Carrying on:
Screening Clc1cccc(-c2nnc(SCc3nc4ccccc4[nH]3)n2Cc2ccco2)c1 returned AmpC inh no det 9%.
`COC(=O)C1(C(O)C(=O)c2ccc(C)cc2C)CCCCC1` (stereo not drawn) gave AmpC inh no det 13%.
For Cc1cccc(-c2noc(CN(C(C)C)S(=O)(=O)c3ccc(F)cc3)n2)c1 the results were AmpC inh no det 14%.
Screening CCNc1nc(NCC)n2c(SCc3nc4ccccc4c(=O)[nH]3)nnc2n1 returned AmpC inh no det 40%.
For COc1ccc(C(=O)N2CCC3(CCCN(Cc4ccccc4)C3)CC2)cc1 the results were AmpC inh no det 38%.
For Cc1ccc(CCNC(=O)NC(C)(C)C)cc1 the results were AmpC inh no det -1%.
For CN1C(=O)C2(c3ccccc31)N(C)CC(c1ccccn1)C21SC(=S)N(Cc2ccco2)C1=O (stereo not drawn) the results were AmpC inh no det 129%.
`CCC(C)(C)n1nnnc1CN(Cc1cc2cc(OC)c(OC)cc2[nH]c1=O)C1CCCC1` gave AmpC inh no det 85%.
NC(=O)C1(N2CCCCC2)CCN(c2ccc3nnc(-c4ccccc4)n3n2)CC1 was read as AmpC inh no det 120%.
For O=C(CSc1nnc(-c2ccncc2)n1Cc1ccco1)OC1CCCCC1 the results were AmpC inh no det 48%.
Cc1oc(C(C)(C)C)cc1C(=O)Nc1ccc(C(=O)O)cc1 was read as AmpC inh no det -9%.
`CCOC(=O)c1sc(=S)n(Cc2ccccc2)c1N` gave AmpC inh no det -12%.
`COC(=O)c1ccc(C2C(C(=O)OCC(C)C)=C(C)N=C3SCCC(=O)N32)cc1` (stereo not drawn) gave AmpC inh no det 126%.
`CCOC(=O)c1[nH]c(CSc2nnnn2-c2ccccc2C)c(C(=O)OCC)c1C` gave AmpC inh no det -8%.
For COc1ccc(OC(=O)c2ccncc2)cc1 the results were AmpC inh no det -3%.
`CCc1nc2c(sc3nc4c(cc32)COC(C)(C)C4)c(=O)n1Cc1ccco1` gave AmpC inh no det 108%.
`COc1ccc(CNc2ccc3c(c2)nc(C)n3C)cc1` gave AmpC inh no det 3%.
Screening Clc1ccc(-c2nnc3sc(-c4ccc(Br)o4)nn23)c(Cl)c1 returned AmpC inh no det -8%.
`CCOC(=O)N1CCN(c2c(NCCN3CCN(Cc4ccccc4)CC3)c(=O)c2=O)CC1` gave AmpC inh no det 4µM*[single pt active].
For CC(=O)N1CCN(S(=O)(=O)c2cccc(C(=O)Nc3nc4ccccc4[nH]3)c2)CC1 the results were AmpC inh no det 75%.
`CCOC(=O)c1c(NC(=O)CSc2nnc(CNc3ccc(F)cc3)o2)sc(C(C)=O)c1C` gave AmpC inh no det 26%.
Screening CCc1ccc(CN2C(=O)CCC2(C)C(=O)NC2CCCC2)cc1 (stereo not drawn) returned AmpC inh no det 62%.
CCCCOC(=O)c1ccc(Nc2ncnc3nc[nH]c23)cc1 was read as AmpC inh no det 20%.
`COCCNc1nc(C)nc2c1nc(-c1ccccc1)n2CCCN1CCCCC1C` (stereo not drawn) gave AmpC inh no det -2%.
O=c1cc(C23CC4CC(CC(C4)C2)C3)[nH][nH]1 was read as AmpC inh no det -2%.
Cn1nnnc1SCC(=O)Nc1ccccc1N1CCOCC1 was read as AmpC inh no det 2%.
`CN(C)c1nccc(Nc2ccccc2)c1C#N` gave AmpC inh no det 3%.
`COc1ccc2c(c1)c1ncn(CCN3CCCC3)c(=O)c1n2C` gave AmpC inh no det 14%.
Screening COc1ccccc1NC(=O)C(C/C=C(\C)Cl)C(C)=O (stereo not drawn) returned AmpC inh no det 14%.
O=C(CN(Cc1cccs1)C(=O)CSc1nnc(COc2ccccc2)o1)NC1CCCC1 was read as AmpC inh no det 32%.
`O=S(=O)(c1cccc(C(F)(F)F)c1)N1c2ccccc2-n2cccc2[C@H]1c1cccnc1` gave AmpC inh no det 11%[5.75 µM].
For Cc1onc(-c2ccccc2Cl)c1C(=O)N1CCN(C/C=C/c2ccccc2)CC1 the results were AmpC inh no det 148%.
CC(=O)Nc1cc2c(cc1C(C)=O)OCCO2 was read as AmpC inh no det 2%.
Screening COCCCNC(=O)C1CCN(S(=O)(=O)c2c(C)noc2/C=C\c2ccc(OC)cc2)CC1 returned AmpC inh no det 104%.
For Cc1ccc2cc(C#N)c(NCCNC(=O)C3CC3)nc2c1C the results were AmpC inh no det 42%.
For O=C(Nc1cccc(-c2nnc(-c3ccccc3)o2)c1)c1ccco1 the results were AmpC inh no det 18%.
Screening COCc1cc(C)nc(N2CCc3ccccc32)c1C#N returned AmpC inh no det 11%.
CS(=O)(=O)c1ccc([C@H](O)[C@H](CF)NC(=O)C(Cl)Cl)cc1 was read as AmpC inh no det -10%[12.8 µM].
